Calb FLC: C. albicans growth inhibition with fluconazole, primary screen, CaCi-2 strain, Alamar Blue fluorescence; 300,000 tested, 0.57% active; C. albicans CaCi-2 (fluconazole-resistant clinical isolate) + fluconazole, 48 h; growth inhibition, % (test concentration not listed);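 active = most replicates above 75%; inconclusive = exactly half above 75%; inactive = most below 75%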;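 note: all wells also contain fluconazole at 8 µg/ml as a sub-toxic cotreatment; 0% = median of DMSO wells and 100% = median of geldanamycin control wells; wells of about 8 µL received 7.5 nL stock; the first replicate is given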
RanGTP-Impb inh: inhibitors of RanGTP-importin-beta interaction, primary screen, biochemical, FRET, CFP-Ran, YFP-importin-beta, homogeneous; AID 2216, 2009; inhibition, % (no concentration beside the values); cell-free CFP-Ran/YFP-importin-beta FRET ratio; 300,000 tested, 1.1% active;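 active = most replicates above 15%; inconclusive = exactly half above 15%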;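 note: 0% = DMSO wells and 100% = Ran loaded with GDP instead of GTP; wells of about 40 µL received 100 nL stock; the first replicate is given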
Vif A3G: inhibitors of Vif binding to APOBEC3G peptide, primary screen, biochemical, TR-FRET, GST-Vif 1-94, biotin-A3G peptide, dose response retest (AID 1117319) | Virion infectivity factor (Human immunodeficiency virus type 1 group M subtype B (isolate … | TR-FRET GST-Vif / biotin-A3G peptide binding; higher % means a stronger effect; test concentration not given here; strong numbers were not always called active | inhibition, %, or IC50 in µM where a hit was titrated | 260,000 tested, 0.57% active;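 active = above the screen mean plus three standard deviations and confirmed in dose response; inconclusive = results disagree or hit not tested in dose response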;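 note: Vif residues 1-94 fused to GST binding biotinylated APOBEC3G peptide 110-148; 0% = full assay without inhibitor and 100% = GST in place of GST-Vif; retest series ran down from 100 µM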
B2AR ag: beta2AR agonists driving receptor internalization, primary screen, cell-based, FAP fluorogen, flow cytometry; Am2.2-beta2AR cells; reference of the scale not given here; response, % (concentration not given with the values); 340,000 tested, 0.43% active; AID 504454, 2011;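 active = response above a set limit, near 3 SD of response in nonfluorescent compounds, cut at about 42% in these data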;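 note: stock transfer was 100 nL into about 11 µL; a reference agonist was the positive control; negative values mostly stem from fluorescent compounds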
HNF4A DNA FP: change in binding of human HNF4A to DNA, primary screen, biochemical, fluorescence polarization, FITC-DNA; activity change, % at 10 µM; AID 1224865, 2016; 1 h; 360,000 tested, 0.3% active; Hepatocyte nuclear factor 4-alpha (Homo sapiens), P41235; in the data active = activity change above about 30%, passing the limit was not always enough;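 note: controls were the assay level and a saturating level of protein; the project sought stronger binding though the title names inhibitors; some compounds called inactive have numbers as strong as hits; positive values seem to mean higher polarization but the record does not say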
ALR inh: inhibitors of human ALR sulfhydryl oxidase, primary screen, biochemical, H2O2 detection, HRP-luminol luminescence, single point | FAD-linked sulfhydryl oxidase ALR (Homo sapiens), P55789 | purified ALR, DTT oxidation | inhibition, % (no concentration beside the values) | 290,000 tested, 3.8% active | AID 485317, 2010;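 active = mean and each replicate at 75% or more; inconclusive = only one of the two met; inactive = neither met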;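 note: stock transfer was 7.5 nL into about 7.5 µL; 0% = neutral wells and 100% = wells with inactivated enzyme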
LANA-H2B inh: blockers of LANA interaction with H2A/H2B – biochemical, FP readout, HTS, primary screen | inhibition, % (concentration not given with the values) | Protein LANA1 (Human herpesvirus 8 type P (isolate GK18)), Q9QR71 | AID 2629, 2010 | 320,000 tested, 0.6% active | cell-free LANA-H2A/H2B peptide, fluorescence polarization; in the data active = inhibition mostly above about 10%, no sharp cut-off; inactive = mostly below about 6.7%;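 note: stock transfer was 7.5 nL into about 10 µL; 0% = median of vehicle wells and 100% = median of positive control wells; one replicate is shown; the record names a cut of 25% in any replicate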
Target sequence (Q9QR71 whole entry, looked up): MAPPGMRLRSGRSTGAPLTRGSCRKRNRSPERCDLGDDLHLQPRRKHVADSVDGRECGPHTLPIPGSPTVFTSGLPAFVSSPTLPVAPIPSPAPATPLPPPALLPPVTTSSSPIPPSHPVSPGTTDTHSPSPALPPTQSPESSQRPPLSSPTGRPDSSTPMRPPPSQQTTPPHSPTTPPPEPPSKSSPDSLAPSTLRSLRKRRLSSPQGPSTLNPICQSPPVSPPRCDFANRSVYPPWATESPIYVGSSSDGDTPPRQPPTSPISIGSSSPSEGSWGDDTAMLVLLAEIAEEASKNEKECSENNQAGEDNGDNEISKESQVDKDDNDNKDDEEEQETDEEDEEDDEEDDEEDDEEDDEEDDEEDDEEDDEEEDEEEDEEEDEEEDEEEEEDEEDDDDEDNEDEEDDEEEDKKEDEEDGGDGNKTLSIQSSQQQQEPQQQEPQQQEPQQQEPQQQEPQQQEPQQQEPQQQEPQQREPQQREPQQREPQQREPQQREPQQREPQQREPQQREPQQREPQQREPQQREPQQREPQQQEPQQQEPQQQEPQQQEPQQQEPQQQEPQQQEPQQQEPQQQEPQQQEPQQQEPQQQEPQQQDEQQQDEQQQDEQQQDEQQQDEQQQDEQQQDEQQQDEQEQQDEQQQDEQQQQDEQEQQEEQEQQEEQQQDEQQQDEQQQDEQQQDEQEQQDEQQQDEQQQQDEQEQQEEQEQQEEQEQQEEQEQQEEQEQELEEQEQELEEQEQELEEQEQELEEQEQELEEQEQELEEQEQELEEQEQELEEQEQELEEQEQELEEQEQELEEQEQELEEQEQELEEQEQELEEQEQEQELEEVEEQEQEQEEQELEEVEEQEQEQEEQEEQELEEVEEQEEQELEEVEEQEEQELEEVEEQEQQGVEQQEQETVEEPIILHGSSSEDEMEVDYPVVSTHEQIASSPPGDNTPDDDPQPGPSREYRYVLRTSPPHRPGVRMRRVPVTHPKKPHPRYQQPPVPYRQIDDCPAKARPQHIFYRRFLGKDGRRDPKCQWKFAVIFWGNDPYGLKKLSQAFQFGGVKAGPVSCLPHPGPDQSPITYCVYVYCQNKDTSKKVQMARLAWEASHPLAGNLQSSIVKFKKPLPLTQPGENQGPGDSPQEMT
* = called active by the depositor; ? = inconclusive; nt = no result given; & = joins results of further samples.

canonical_smiles,Calb FLC,RanGTP-Impb inh,Vif A3G,B2AR ag,HNF4A DNA FP,ALR inh,LANA-H2B inh
Cc1nn(-c2nc3ccccc3[nH]2)c(=O)c2ccccc12,-1,-0.7,nt,-30,1.2,-1,2.5
CCc1ccc(C(C(=O)NC(C)(C)CC)N(Cc2ccco2)C(=O)Cn2nnc3ccccc32)cc1 (centres undefined),-1,-1.1,-6%,13,1.2,-1,-1.5
COC(=O)c1c(C)n(-c2ccccc2)c2ccc(O)cc12,92*,-2.6,9%,11,2.1,-27,-1.9
CC1=NN(c2ccccc2)C(=O)C1C=Nc1ccccc1O (centres undefined),-21,0.7,2%,9,-1.5,6,0.1
O=C(NCCN1CCCCC1)/C(=C/c1ccco1)NC(=O)c1ccccc1,2,?,nt,2,-0.2,3,-3.5
O=C(CN1CCCCC1)n1c2ccccc2c2ccccc21,4,?,2%,14,-1.6,-17,-2.9
CCCCOc1ccccc1/C=N/NC(=O)CC#N,-6,0.5,7%,3,3.9,3,1.2
COCCN(C(=O)c1cc(-c2ccco2)nc2ccccc12)c1c(N)n(Cc2ccccc2)c(=O)[nH]c1=O,nt,nt,nt,-5,-20,-9,1.3
Cc1ccc(Cl)c(OCC(=O)N2CCc3ccccc3C2)c1,9,-2.6,nt,-7,4.9,-6,1.3
O=C1C=C(Nc2ccccc2)c2ccccc2C1=O,-4,4.1,2%,6,2.2,nt,nt
O=C(c1cc(-c2ccccc2)on1)N1CCN(c2ccccc2)CC1,1,5.3,nt,-3,-3.8,5,3.3
O=S(=O)(c1ccc(NC(=S)N/N=C/c2ccc(N3CCOCC3)cc2)cc1)N1CCOCC1,1,-1.3,1%,-4,-1.6,nt,nt
COc1cc(N)ccc1C(=O)O,17,0.5,?,-11,0.7,-13,1.2
CCCn1c(N)c(Br)c(=O)[nH]c1=O,-2,5.1,-2%,0,-3.7,-1,-5.7
COC(=O)CSc1ncnc2c1sc1nc(-c3ccco3)c3c(c12)CC(C)(C)OC3,nt,nt,?,nt,nt,1,-5.8
CCN(CC)CCNC(=O)c1ccc(NC(=O)COc2ccccc2F)cc1,-1,-1.8,30%,-13,3.3,-5,-1.5
Cc1ccc(OCC(=O)c2cc(C)c(C)cc2C)c([N+](=O)[O-])n1,3,4.0,7%,-9,1.7,nt,16
Cc1onc(-c2c(F)cccc2Cl)c1C(=O)NNC(=O)C1CCN(Cc2ccccc2)CC1,92*,1.8,0%,5,-2.3,40,6.5
CC(=O)c1cnn(-c2cc(Oc3ccccc3C)ncn2)c1C,0,-4.3,?,-4,-1.2,-9,1.7
CC(=O)c1ccn(S(=O)(=O)c2ccccc2)c1,3,-3.3,-1%,2,-2.8,-5,2.5
O=S(=O)(N=S(N1CCCCC1)N1CCCCC1)c1ccccc1,3,nt,3%,-2,2.4,-2,0.2
Cc1ccc(S(=O)(=O)c2c(C)nn(C(C)(C)C)c2OC(=O)c2ccc(Br)o2)cc1,87*,-2.7,4%&-5%,9,2.7,nt,6.6
CSc1nsc(SC)c1C(=O)N1CCN(S(=O)(=O)c2ccc(C)cc2)C1C (centres undefined),-6,4.9,-4%,14,-1.1,-7,-7.1
O=C(Nc1ccc2c(c1)OCCO2)c1cccnc1,-1,1.1,16%,14,3.4,-10,1.2
Cc1cc(C)c(S(=O)(=O)Nc2ccc(N(C)C)cc2)c(C)c1-n1cnnn1,-7,9.0,nt,4,-1.2,99*,7.1
C=CCn1c(=NC(=O)c2cccs2)sc2cc(NC(C)=O)ccc21,-2,2.0,-8%,-23,-2.6,48,1.6
CC1CC(C)CN(C(=O)COC(=O)c2ccc3c(c2)OCO3)C1 (centres undefined),nt,nt,-5%,7,-4.5,-3,-0.2
O=C(Cc1ccc(F)cc1)NC1CCCCCC1,-5,1.0,nt,2,-4.6,nt,-8.3
CC1=C(C(=O)N(C)Cc2ccccc2)C2(CCC(C)CC2)OC1=O (centres undefined),0,2.2,2%,-15,5.1,-8,0.5
CCOC(=O)c1c(-c2ccc(C)o2)csc1NC(=O)COC(=O)c1ccc(NC(N)=O)cc1,3,-2.5,-4%,15,-0.3,1,0.3
O=C1NCCNC(=O)c2ccccc2OCCOc2ccccc21,1,0.6,5%,-7,1.8,nt,0.8
COc1ccc(C2=NN(C(=O)CCC(=O)O)C(c3ccc(F)cc3)C2)cc1 (centres undefined),-11,-3.0,nt,4,2.7,-4,-0.4
Cc1nnc(NC(=O)c2nc(S(=O)(=O)Cc3ccccc3)ncc2Cl)s1,4,2.0,nt,6,0.1,99*,nt
COc1ccc(OC)c(S(=O)(=O)NCCC2=CCCCC2)c1,1,-0.3,28%,-4,3.7,-9,0.6
O=C(CCCSc1nc(-c2ccco2)cc(C(F)(F)F)n1)Nc1ccc2c(c1)OCO2,-16,2.7,20%,-4,0.6,-16,2.0
CC(C)(Oc1ccc(Cl)cc1)C(=O)OCC(=O)N1CCN(c2ccccc2)CC1,-5,-2.6,-2%,-4,2.4,4,1.3
CC1CN(C(=O)c2ccccc2OCc2ccc(Cl)cc2Cl)CC(C)O1 (centres undefined),nt,nt,-13%,-3,1.5,-41,1.8
CCCNC(=O)OCCC12CC3CC(CC(C3)C1)C2,-22,-1.6,4%,-7,-0.8,0,-0.8
Cc1c(C(=O)Nc2c(N)nc(SCC(=O)NCC3CCCO3)[nH]c2=O)cccc1[N+](=O)[O-] (centres undefined),0,0.3,0%,-1,1.9,-1,4.1
CSc1ncccc1C(=O)NCCc1ccc(S(N)(=O)=O)cc1,-9,-0.5,0%,-2,-0.3,-6,-1.4
COC(=O)C1C2C=CC3(CN(CCc4ccccc4)C(=O)C13)O2 (centres undefined),-2,1.3,-4%,3,-2.4,-6,4.0
Cn1c(CNC(=O)C(Cc2ccccc2)NC(=O)c2cccc(F)c2)cc(=O)n(C)c1=O (centres undefined),nt,4.1,nt,9,0.2,-1,-3.0
CCOc1ccc(OCC)c(NC(=O)CN2CCN(C(=O)c3ccco3)CC2)c1,-1,-3.8,27%,1,-0.6,-14,1.5
Cc1ccc(S(=O)(=O)N2CC3CCCC2C3)cc1 (centres undefined),-13,-3.3,6%,10,-0.1,nt,0.6
COc1cc([N+](=O)[O-])ccc1NC(=O)COC(=O)c1n[nH]c2ccccc12,-1,-2.4,?,1,-0.4,-8,1.0
CCCc1nc2oc3c(NCCCN(C)C)ncnc3c2c2c1CCCC2,-2,0.3,nt,18,10,1,-8.9
CCN(CC)S(=O)(=O)c1cccc(NC(=S)NC(=O)/C=C/c2ccc(S(=O)(=O)N3CCOCC3)cc2)c1,2,1.4,-6%,-7,3.0,-8,1.2
CCOc1ccc(C(CC(=O)O)NC(=O)c2cccs2)cc1OC (centres undefined),-2,0.1,4%,3,4.6,-6,0.9
COc1cnc(SC)nc1Nc1ccc(C#N)cc1,11,-1.5,-7%,-3,-0.3,nt,2.6
COc1cc(C2C(C(C)=O)=C(O)C(=O)N2c2ccc(Br)cn2)ccc1O (centres undefined),18,4.3,19%,-5,0.9,21,2.5

Continued.
canonical_smiles,Calb FLC,RanGTP-Impb inh,Vif A3G,B2AR ag,HNF4A DNA FP,ALR inh,LANA-H2B inh
CCOC(=O)c1c(NC(=O)Cn2nc(C(=O)O)c3ccccc3c2=O)sc(C)c1C,0,-2.0,-8%,7,2.3,-3,3.6
O=c1[nH]cnc2cc(-c3ccccc3)sc12,29,-1.1,-1%,-4,-0.1,-1,0.6
COc1ccc(C2C(C#N)=C(N)N(c3sc4c(c3C#N)CCCC4)C3=C2C(=O)CC(C)(C)C3)cc1 (centres undefined),57,?,8%,-1,10.0,-6,10
COc1ccc(CNC(=O)c2ccc(CS(=O)(=O)c3ccccc3C)o2)cc1,-3,-2.4,nt,-7,-2.5,-2,1.1
Cc1ccc(-c2csc(NC(=O)c3cccc([N+](=O)[O-])c3C(=O)O)n2)cc1,60,4.1,nt,1,-6.4,-8,2.1
COc1ccc(OCC(=O)OCC(=O)NCc2ccc(F)cc2)cc1,0,2.1,28%,-3,-1.6,-15,-3.6
C=CCNC(=O)c1ccccc1NC(=O)c1ccccc1,-3,11,3%,-8,-1.3,-1,-0.1
COCCn1nnnc1C(c1ccccc1OC)N1CCN(c2ccccc2)CC1 (centres undefined),-4,0.7,2%,8,3.2,84*,-1.4
CC(C)(C)NC(=O)COC(=O)c1cc(Br)ccc1Cl,-7,-4.5,nt,2,1.8,-6,14
COc1ccc(N/N=C(/N=Nc2nc(C)cc(=O)[nH]2)c2ccccc2)cc1,-12,4.4,18%,0,-1.4,-24,3.0
CCc1sc2nc(SCC(=O)Nc3cc(C)on3)n(-c3cccc(OC)c3)c(=O)c2c1C,-7,-0.7,-2%,13,2.7,-5,-0.8
C/C(=N\NC(=O)C(c1ccccc1)c1ccccc1)c1ccccn1,5,0.3,6%,46*,3.1,nt,0.0
Clc1ccc2c(c1)c1cc(Cl)ccc1n2CN1CCOCC1,24,-0.5,3%,6,1.6,-17,-2.6
O=C(CSC1=Nc2ccccc2C2=NC(CC(=O)NCc3ccco3)C(=O)N12)NCc1ccco1 (centres undefined),?,1.1,17%,-7,-7.5,7,-2.0
O=C(COC(=O)Cc1c(Cl)cccc1Cl)NCC1CCCO1 (centres undefined),-1,-3.3,nt,-6,1.0,nt,-6.3
O=C(COC(=O)CC1CCCC1)Nc1ccc(OC(F)F)cc1,-7,-2.0,-7%,4,-4.1,-8,-2.6
O=C(COc1ccccc1)Nc1ccc(S(=O)(=O)N2CCCCCC2)cc1,10,1.3,1%,6,2.4,-2,-0.1
CC(C)(C)n1ncc2c(=O)n(CC(=O)N3CCCCCC3)cnc21,-2,-2.3,-3%,2,-1.2,1,0.2
Cc1ccc(NC(=S)Nc2ccc(Cl)c(Cl)c2)c(OC(F)F)c1,11,-1.9,nt,19,3.7,-26,-2.1

Compound activity: PubChem, several laboratories

This is a random part of the collection, and some 6.3% of all compounds hit somewhere here.
